# Screening data deposited in PubChem BioAssay by Johns Hopkins Ion Channel Center.
# KCNQ2 enhance – enhances the rat KCNQ2 potassium channel | O88943 | CHO-K1 KCNQ2, FluxOR thallium flux fluorescence; stronger effect = higher value | B-score at 10 µM | 310,000 tested, 0.54% active;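 active = fluorescence ratio B-score at least 3 SD of library B-scores, with initial fluorescence B-score within 3 SD, cut at about 5.3 in these data; same plate scores as AID 2156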;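 note: B-score of peak minus minimum over baseline fluorescence ratio after K+ and Tl+ stimulus; positive B-score means potentiation of KCNQ2 with more thallium influx and brighter signal; only the inactives scoring about 0 or higher are listed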
# Target sequence (O88943 whole entry, looked up): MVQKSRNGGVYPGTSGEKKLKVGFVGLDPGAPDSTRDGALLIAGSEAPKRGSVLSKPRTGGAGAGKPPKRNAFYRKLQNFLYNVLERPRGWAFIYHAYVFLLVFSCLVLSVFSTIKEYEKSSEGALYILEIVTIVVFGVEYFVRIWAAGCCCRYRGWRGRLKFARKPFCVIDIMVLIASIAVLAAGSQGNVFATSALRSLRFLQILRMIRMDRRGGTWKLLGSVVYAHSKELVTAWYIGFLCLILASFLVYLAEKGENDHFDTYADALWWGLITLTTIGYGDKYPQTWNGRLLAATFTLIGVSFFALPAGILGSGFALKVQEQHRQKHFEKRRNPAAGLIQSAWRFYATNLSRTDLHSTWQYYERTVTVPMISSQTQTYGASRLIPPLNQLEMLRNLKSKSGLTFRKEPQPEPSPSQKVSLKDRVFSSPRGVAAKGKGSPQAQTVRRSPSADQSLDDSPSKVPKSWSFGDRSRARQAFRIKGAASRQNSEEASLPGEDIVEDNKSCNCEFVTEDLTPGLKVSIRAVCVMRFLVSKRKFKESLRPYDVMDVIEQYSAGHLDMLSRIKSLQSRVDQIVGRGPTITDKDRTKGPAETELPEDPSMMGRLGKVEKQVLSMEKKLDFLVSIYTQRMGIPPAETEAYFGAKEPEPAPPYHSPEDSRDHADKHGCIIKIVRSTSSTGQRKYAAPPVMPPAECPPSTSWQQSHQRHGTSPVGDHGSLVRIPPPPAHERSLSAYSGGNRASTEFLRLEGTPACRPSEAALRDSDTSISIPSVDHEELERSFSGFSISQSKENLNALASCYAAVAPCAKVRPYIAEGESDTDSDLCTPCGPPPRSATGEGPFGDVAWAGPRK
# KCNQ2 enhance baseline – second read-out of KCNQ2 enhance, no call of its own (marks repeat the call); B-score; compound at 10 µM; measured here: initial fluorescence intensity artifact check;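 brightness before thallium and not channel activity; 0 = typical well and far values either way flag optical interference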
# * = called active by the depositor. These rows are one share of the data (hit frequency here may not be typical).
smiles	KCNQ2 enhance	KCNQ2 enhance baseline
Cn1c(SCC(=O)Nc2ccccc2C(F)(F)F)nc2c(c1=O)SCC2	0.01	0.86
CN(Cc1ccccc1)C(=O)COC(=O)c1cc(NS(=O)(=O)c2cccs2)ccc1O	2.7	-0.27
Cc1c(Cl)cccc1NC(=O)CNc1cccc(S(=O)(=O)N(C)C)c1	1.3	0.34
O=C(COC(=O)CCc1nc2ccccc2s1)Nc1ccc(Cl)cn1	0.89	0.34
COc1ccc(OC)c(CN2CCN(C(=O)CN3C(=O)NC4(CCCC4)C3=O)CC2)c1	1.1	-0.9
CN1CCN(C2CC(=O)N(CCc3ccccc3)C2=O)CC1 (centres undefined)	0.67	-1.4
CCOCCCNC(=O)c1ccc(OC)c(OC2CCN(C(C)C)CC2)c1	1.6	0.14
CCOC(=O)C1(Cc2cccc(F)c2)CCN(C(=O)C2CCOCC2)CC1	1	-1.5
O=C(c1ccccn1)N1CCN(C(=O)c2ccccn2)CC1	0.05	1.5
COc1ccccc1CNC(=O)Cn1ccsc1=N	0.11	1.6
CCOC(=O)C1=C(COC(=O)Cc2ccccc2F)NC(=O)NC1C (centres undefined)	0.38	-0.15
Cc1nnc(Nc2ccc(S(N)(=O)=O)cc2)c2ccccc12	1.3	-0.04
COc1ccccc1/C=N/NC(=O)C(C)Cn1cnc2ccccc21 (centres undefined)	1.6	-0.41
O=C(c1ccccc1F)N1CCc2ccccc21	0.14	-0.09
CCN(CC)CCOC(=O)c1c(C)oc2ccc(O)cc12	0.88	0.49
O=C(OCc1ccccc1)C1CCCN1C(=O)c1cccs1 (centres undefined)	1.4	-0.64
CCCNC(=O)c1ccc(C)c(NC(=O)C2=C(C)OCCS2)c1	0.04	-1.2
Cc1ccsc1/C=N/NC(=O)CNC(=O)c1ccc(S(=O)(=O)N(C)C)cc1	1.5	0.02
COc1cccc(N=C2SC(C(=O)Nc3ccccc3F)CC(=O)N2C)c1 (centres undefined)	1.9	-1.6
CN(CCNC(=O)C1CC(=O)N(C2CCCC2)C1)Cc1ccccc1 (centres undefined)	0.13	1.2

# Continuation.
smiles	KCNQ2 enhance	KCNQ2 enhance baseline
O=C(COc1ccc(S(=O)(=O)N2CCOCC2)cc1)Nc1ccc(Cl)c(C(F)(F)F)c1	0.45	-1.9
CC1Cc2ccccc2N1C(=O)c1cnc2sccn2c1=O (centres undefined)	1.2	-0.03
CNC(=O)CSc1nnc(-c2ccco2)n1-c1cccc(OC)c1	0.03	-0.37
CCn1ccc(C(=O)Nc2ccc(Cl)cn2)n1	0.91	0.19
CC(=O)Cn1c2ccccc2n2nc(CCC(=O)O)c(=O)nc12	0.37	-1.2
Cc1c(NC(=O)C2CC(c3cccc(Br)c3)=NO2)c(=O)n(-c2ccccc2)n1C (centres undefined)	0.17	1.8
CN(C)/C=N/c1[nH]ncc1C#N	1.3	-0.68
C=CCNc1sc(C(=O)c2ccccc2)c(N)c1C#N	2.4	1
COC/C=C/C1=CC2=CC(=O)C(C)(OC(=O)c3cnc4ccccc4n3)C(=O)C2=CN1C1CC1 (centres undefined)	0.92	0.33
COc1cc(OC)nc(NC(=O)NS(=O)(=O)c2ccc(F)cc2)n1	0.04	-1.3
O=C(Nc1ccnc(-c2cccnc2)n1)c1cccs1	0.57	0.02
CCOC(=O)N1CCN(C(=O)c2ccc(C)c(S(=O)(=O)N3CCCCC3)c2)CC1	0.01	0.36
Cc1ccc(S(=O)(=O)N2CCC(C(=O)Nc3nnc(C4CCCC4)s3)CC2)cc1	0.56	0
CC(=O)c1ccc(NC(=O)c2cc(C)no2)cc1	0.51	1.7
CC(=O)Nc1nc2c(c3c1c(=O)oc1ccccc13)CC(C)CC2 (centres undefined)	0.06	-1.3
CCOC(=O)c1c(NC(=S)Nc2ccccc2)sc2c1CCCCC2	1	-0.19
Cc1ccc2[nH]c(O)c(N=NC(=O)c3ccc(NS(=O)(=O)c4cccs4)cc3)c2c1	2.1	0.66
Cc1cc(C)n(CCC(=O)N/N=C/c2c(O)ccc3ccccc23)n1	3.3	0.03
CNC(=O)CN1C(=O)NC2(CCc3ccccc32)C1=O (centres undefined)	1.2	-1.7
Cc1ccc(NC(=O)COc2ccc3c(c2)CCC3)nc1	0.7	-0.87

# Three neighbouring records already listed, for reference:
smiles	KCNQ2 enhance	KCNQ2 enhance baseline
Cn1c(SCC(=O)Nc2ccccc2C(F)(F)F)nc2c(c1=O)SCC2	0.01	0.86
CN(Cc1ccccc1)C(=O)COC(=O)c1cc(NS(=O)(=O)c2cccs2)ccc1O	2.7	-0.27
Cc1c(Cl)cccc1NC(=O)CNc1cccc(S(=O)(=O)N(C)C)c1	1.3	0.34

# (list continues)
smiles	KCNQ2 enhance	KCNQ2 enhance baseline
O=C(O)CCc1ccc(-c2ccc(Cl)cc2)n1NC(=O)c1ccc(O)cc1	0.41	-1.2
CCCOP(=O)(c1ccc(N(C)C)cc1)C(O)c1c(Cl)cccc1Cl (centres undefined)	0.59	-0.5
COc1cc(CO)ccc1OCC(=O)Nc1ccc(Br)cc1	0.61	0.04
COc1ccc(NC(=O)N2CCCC(CCC(=O)N(C)CCc3ccccn3)C2)cc1 (centres undefined)	1.1	0.31
Cc1nc2ncnn2c(C)c1Cc1ccccc1Cl	1.6	0
Cc1cccc(C(=O)OCC(=O)Nc2ccc(F)cc2)c1	1.3	-1.6
COc1ccc2cc(CCNC(=O)c3ccc(S(=O)(=O)N4CCCC4)cc3)c(=O)[nH]c2c1	1.2	0.01
Cc1nn(-c2nnc(C)c(=O)[nH]2)c(C)c1SCC(=O)Nc1ccc(F)cc1	1.6	-0.09
Cc1ncc(CO)c(CNc2ccc(Oc3ccccc3)cc2)c1O	1.1	1.4
CCN(CC)S(=O)(=O)c1ccc(O)c(C(=O)OCC(=O)NC2CCCC2)c1	0.74	0.24
CCN(CC(=O)Nc1c(F)cccc1F)C(=O)C1CCN(S(=O)(=O)c2ccc(F)cc2)CC1	0.92	0.14
CC(=O)c1cccc(NC(=O)NC2CCCCC2)c1	1.2	1.2
CCN(C(=O)C(C)OC(=O)CCCNC(=O)c1ccc(Cl)cc1)c1ccccc1 (centres undefined)	0.53	-0.81
CCCCN1CC(C(=O)NCc2ccc(C)cc2)CC1=O (centres undefined)	2.2	0.42
CSCC[C@H](NC(=O)OC(C)(C)C)c1nnc(SCC(=O)N(C)C)o1	0.8	0.37
COC(=O)CN(c1ccc(C)cc1)S(=O)(=O)c1ccc(F)cc1	0.4	-0.75
O=C(O)C1=C[C@H](c2ccc(Br)cc2)C[C@H](OCCCCO)O1	0.02	-1.1
Cc1cc(C(=O)Nc2ccc(N3CCCC3)c(Cl)c2)ccc1[N+](=O)[O-]	0.4	-0.94
CN(C)S(=O)(=O)c1ccc(C(=O)NCC(=O)N/N=C/c2ccco2)cc1	0.2	0.31
CCN(CC)c1ccc(/C=N/NS(=O)(=O)c2ccc(CNC(C)=O)cc2)cc1	0.73	0.09

# Four compounds out of the list above, arranged by the number in KCNQ2 enhance, lowest first.
smiles	KCNQ2 enhance	KCNQ2 enhance baseline
CCCOP(=O)(c1ccc(N(C)C)cc1)C(O)c1c(Cl)cccc1Cl (centres undefined)	0.59	-0.5
COC/C=C/C1=CC2=CC(=O)C(C)(OC(=O)c3cnc4ccccc4n3)C(=O)C2=CN1C1CC1 (centres undefined)	0.92	0.33
CC(=O)c1cccc(NC(=O)NC2CCCCC2)c1	1.2	1.2
Cc1c(Cl)cccc1NC(=O)CNc1cccc(S(=O)(=O)N(C)C)c1	1.3	0.34

# Additional compounds
smiles	KCNQ2 enhance	KCNQ2 enhance baseline
O=C(CSc1nnnn1-c1ccccc1)Nc1ccc(N2CCOCC2)c(Cl)c1	0.48	0.16
CCOc1ccc(C(=O)CCCC(=O)c2ccc(OCC)cc2)cc1	0.17	-0.76
CC(C)CNC(=O)NC1(C(F)(F)F)Oc2ccccc2O1	2.6	-0.08
CN(CC1CCCN(CCc2ccc(F)cc2)C1)C(=O)CCC(N)=O (centres undefined)	1.5	-1
CCOC(=O)c1cnc2c(cnn2C)c1NCCCN(C)C	1.1	-0.58
COc1ccc(N(CC(=O)Nc2c(C)n(C)n(-c3ccccc3)c2=O)S(=O)(=O)c2ccc(F)cc2)cc1	0.37	-0.25
O=C(Nn1cnnc1)c1cc2c(s1)CCCC2	0.67	0.6
O=C(O)c1cccc(Nc2nc(Nc3ccccc3)nc(N3CCCC3)n2)c1	0.26	-1.9
CCN(Cc1ccccc1)C(=O)C1CCN(Cc2sccc2C)CC1	1	0.07
C/C(=N\N=C(N)N)c1cccc(Cl)c1	0.47	2.2
CCOC(=O)c1csc(NC(=O)c2ccc(N3C(=O)CCC3=O)cc2)n1	0.5	0.03
COc1ccc(S(=O)(=O)NC(C)C(=O)Nc2ccccc2C(F)(F)F)cc1 (centres undefined)	0.99	1.6
COc1ccc(NC(=O)Cn2c([N+](=O)[O-])cnc2C)cc1Cl	2.1	-0.44
COC(=O)C1=NN(C(=O)c2ccccc2)C(O)(c2ccc([N+](=O)[O-])cc2)C1 (centres undefined)	0.38	1.3
CCc1nnc(NS(=O)(=O)c2ccc(NC(=S)NC(=O)c3ccc(OC)c(OC)c3)cc2)s1	1.3	-1.7
O=C(NC(Cc1ccccc1)C(=O)O)/C(=C/c1ccco1)NC(=O)c1cccc(Br)c1 (centres undefined)	0.47	0.07
c1ccc(OCc2nn3c(C4CCCCC4)nnc3s2)cc1	0.77	-0.7
O=c1[nH]c(=S)[nH]c2scc(-c3ccc(Br)cc3)c12	3.3	-0.41
CCOC(=O)c1nn(-c2ccccc2)c(C)c1C(C)=O	0.04	1.1
COc1ccc(Cl)cc1NC(=O)c1nc2nc(C)cc(C(F)F)n2n1	1.7	1.3

# Going on with the list.
smiles	KCNQ2 enhance	KCNQ2 enhance baseline
O=C1/C(=C/c2cccc(F)c2)SC(=S)N1NS(=O)(=O)c1ccccc1	2.7	1.7
Nn1c(COc2cccc(Br)c2)nnc1SCC(=O)N1CCc2ccccc2C1	0.18	-2.5
Cc1ccc(C)c(Cn2nnc3c(=O)[nH]c(C4CCCN(C(=O)c5ccco5)C4)nc32)c1 (centres undefined)	1.4	0.15
O=C(O)c1cc(-c2ccccc2)nn1CC1CC(c2cccc([N+](=O)[O-])c2)=NO1 (centres undefined)	0.82	-2.7
Cc1c(NC(=O)c2cc3ccccc3o2)c(=O)n(-c2ccccc2)n1C	0.97	-0.73
O=C(CSc1nnc(NC(=O)C2CC(=O)N(c3ccccc3)C2)s1)NCc1ccco1 (centres undefined)	0.36	-0.07
Cc1cccc(OCC(=O)Nc2ccc3c(c2)nc(CCN2CCN(C)CC2)n3C)c1	0.57	-1.1
O=[N+]([O-])c1nn(-c2ccc(Cl)cc2)n(O)c1=NCc1ccccc1Cl	1.5	-1.7
CCOC(=O)N1CCN(C(=O)c2ccc(-n3c(=S)[nH]c4ccccc4c3=O)cc2)CC1	1.3	1.6
COc1cc(-c2cc(C(=O)O)c3c(OC)c(OC)c(OC)cc3n2)ccc1O	0.52	-1.1
COC(=O)c1cccc(C23CC4(C2)[C@H](CN(Cc2ccc(C(F)(F)F)cc2)[C@@H]4c2ccccc2)C3c2ccc(Cl)nc2)c1 (some centres undefined)	0.64	0.03
O=C(CCCC1=NS(=O)(=O)c2ccccc2N1)N1CCN(c2ccc(Cl)cc2)CC1	1.1	0.79
COc1cccc(OCc2cc(C(=O)N(C)Cc3nc(C)cs3)no2)c1	0.24	0.05
CCOc1ccc(S(=O)(=O)NCCC(=O)N2CCN(c3ccc(OC)cc3)CC2)cc1	1	0.04
O=c1c2c(-c3ccccc3)ccnc2[nH]n1-c1ccccc1	0.5	-2.6
COc1cccc(-n2c(C)nc3c(cnn3-c3ccc(C)cc3)c2=O)c1	0.36	1.7
C1=Cc2ccccc2Nc2ccccc21	0.41	-0.65
COc1ccc(-c2nnc(SCC(=O)Nc3ncc(C)s3)n2-c2ccccc2)cc1OC	0.48	-2.3
COCCn1c(Cc2ccccc2)nnc1SCc1ccc([N+](=O)[O-])cc1	0.11	-0.18
CN(Cc1cccc(Cl)c1Cl)C(=O)c1ccc(NC(=O)CC#N)cc1	0.03	0

# Other results:
smiles	KCNQ2 enhance	KCNQ2 enhance baseline
CCC(=Nc1ccccc1O)C1=C(O)CC(c2ccccc2)CC1=O (centres undefined)	0.29	0.13
CC(C)(C)NC(=O)NC(=O)COC(=O)CCC1CCCCC1	0.9	0.47
CCCN1CCN(C(c2cc3cc(OCC)ccc3[nH]c2=O)c2nnnn2C2CCCCC2)CC1 (centres undefined)	0.45	-0.43
CCOc1ccccc1NC(=O)N1CCC(c2nc3ccc(C)cc3[nH]2)CC1	0.09	-1.4
CSc1ccc(S(=O)(=O)Nc2ccc3c(c2)NC(=O)CC3)cc1	0.59	0.2
COC(=O)c1cnc(Oc2ccc(NC(=O)NC(=O)c3ccccc3Cl)cc2)cc1C(F)(F)F	1.1	0.01
Cc1ccc(S(=O)(=O)Nc2cc(C(=O)Nc3cc(C)cc(C)c3)ccc2Cl)cc1	1.3	-0.27
COc1ccc(/C=C/c2ccncc2)cc1	0.62	-1.1
O=C(N/N=C/c1ccc([N+](=O)[O-])cc1)c1[nH]ncc1Br	0.73	-0.73
COC(=O)c1cccc(NC(=O)CSc2nc(=O)cc(N)n2-c2ccccc2)c1	0.07	0.34
O=C(Cn1ncc2c1-c1ccccc1OC2)N1CCN(Cc2ccc3c(c2)OCO3)CC1	1.8	-0.36
CN1C(=O)c2cccc3c(S(N)(=O)=O)ccc1c23	0.29	0.21
Cn1cc([N+](=O)[O-])c(C(=O)N/N=C\c2c[nH]c3ccccc23)n1	1.2	0.62
COc1ccccc1NC(=O)CCc1nnc2ccc(NCc3ccco3)nn12	1.2	-0.4
